# Screening results deposited in PubChem BioAssay by National Center for Advancing Translational Sciences (NCATS).
# 2A firefly: lowers the firefly signal of an FMDV 2A StopGo reporter; HEK cells with a luciferase reporter of 2A StopGo recoding; Potency, µM (titrated, usually from 57.5 µM), for inactives: at the highest dose signal change, negative = less light; actives 0.23% (n = 120,000); AID 1745856; active = well fitted falling curve with a large enough effect; inconclusive = small, poorly fitted or top-dose-only effect; inactive = no such curve, though single readings can be large or run the other way; note: nearly all actives have a fitted effect of over 60% in size; overnight with compound
# StopGo RLuc: lowers the Renilla signal of an FMDV 2A StopGo reporter; HEK cells with a luciferase reporter of 2A StopGo recoding; Potency, µM (top dose mostly 57.5 µM), without a hit: at the top dose signal change, negative = less light; actives 0.32% (n = 120,000); active means well fitted falling curve with a large enough effect; inconclusive means small, poorly fitted or top-dose-only effect; inactive means no such curve, though single readings can be large or run the other way; note: nearly all actives have a fitted effect of over 55% in size; overnight with compound
# * = called active by the depositor; ? = inconclusive; [ ] = dose if it differs, or a comment. % is set by controls: 0 for no effect and ±100 for the full control effect; potency is the fitted concentration of half-maximal effect.
SMILES,2A firefly,StopGo RLuc
CCOC(=O)C1CCN(S(=O)(=O)c2cc(-c3onc(C)c3C)ccc2OC)CC1,2%,70%[activator]
Cc1cc(=O)oc2c(C)c(OC(C)C(=O)NCCCN(C)C)ccc12 (stereo not given),45%,0%
COc1ccccc1NC(=O)CCC(=O)Nc1ccccc1OC,-2%,-7%
Cc1ccc(N2C(=O)c3n[nH]c(C)c3C2c2ccc(O)cc2)cc1 (stereo not given),1%,32%[activator]
CNC(=O)c1ccc(-c2nc(CN3CCN(C(=O)Nc4cccc(OC)c4)CC3)c(C)o2)cc1,67%[activator],23%
O=C(CCS(=O)(=O)c1cc(Br)cc2c1N(C(=O)C1CC1)CC2)NCc1ccccc1Cl,-7%,1%
O=C(COc1ccccc1)Nc1nnc(S(=O)(=O)Nc2ccccc2)s1,2%,3%
CC(C)CCNC(=O)CN1C(=O)CSc2ccc(S(=O)(=O)N3CCCCC3)cc21,0%,12%
Cc1cc(C)c(S(=O)(=O)N2CCC(C(=O)NCc3csc(-c4ccccc4)n3)CC2)c(C)c1,-25%,-12%
Cc1ccc(N2C(=O)CSC23C(=O)N(CC(=O)NC2CCCCC2)c2ccccc23)cc1 (stereo not given),0%,6%
C=CCSc1nc2c(c(=O)[nH]c(=O)n2C)n1CCCCC,-5%,-14%
CC(=O)Nc1cccc(NC(=O)c2cnn(-c3ccccc3F)c2C(F)(F)F)c1C,0%,5%
Cc1ccc2c(C)nc(Nc3nc(C(C)C)cc(=O)[nH]3)nc2c1,8%,10%
CCc1ccc(NC(=O)c2ncoc2-c2cccc(OC)c2)cc1,59%[activator],-8%
CCCCn1c(=O)n(CC(=O)NC(C)C(C)C)c(=O)c2c1ncn2Cc1ccco1 (stereo not given),4%,1%
CC1CCCN(CCCNC(=O)CN2C(=O)CSc3ccc(S(=O)(=O)N4CCOCC4)cc32)C1 (stereo not given),-6%,-19%
Cn1c(=O)n(C)c2cc(N3CCCCC3)c(NC(=O)c3c(F)cccc3F)cc21,11%,19%
O=C(NCc1ccccc1)C1CCN(c2nc3ccccc3o2)CC1,17%,13%
Cc1ncc(-c2ccc(S(=O)(=O)Nc3cccc(Cl)c3C)cc2)o1,-24%,76%[activator]
CC(CCO)Nc1nc2c(c(=O)n(C)c(=O)n2C)n1Cc1ccc(Br)cc1 (stereo not given),8%,-6%

# Random excerpt: 2 records from the list.
SMILES,2A firefly,StopGo RLuc
CCCCn1c(=O)n(CC(=O)NC(C)C(C)C)c(=O)c2c1ncn2Cc1ccco1 (stereo not given),4%,1%
O=C(COc1ccccc1)Nc1nnc(S(=O)(=O)Nc2ccccc2)s1,2%,3%

# Back to the main list, starting four compounds before the break.
SMILES,2A firefly,StopGo RLuc
Cn1c(=O)n(C)c2cc(N3CCCCC3)c(NC(=O)c3c(F)cccc3F)cc21,11%,19%
O=C(NCc1ccccc1)C1CCN(c2nc3ccccc3o2)CC1,17%,13%
Cc1ncc(-c2ccc(S(=O)(=O)Nc3cccc(Cl)c3C)cc2)o1,-24%,76%[activator]
CC(CCO)Nc1nc2c(c(=O)n(C)c(=O)n2C)n1Cc1ccc(Br)cc1 (stereo not given),8%,-6%
COc1ccc(OC)c(CNC(=O)Nc2cn(CC(C)C)c(=O)c3ccccc23)c1,-8%,-11%
Cc1cc2oc(C(=O)N3CCC(Cc4ccccc4)CC3)cc(=O)c2cc1C,7%,-7%
O=C(NCCCN1CCN(c2ccccc2F)CC1)c1ccc2nc(N3CCCCC3)sc2c1,6%,-13%
CC(=O)Oc1ccc2cc(-c3nc(-c4ccc(C)cc4)no3)c(=O)oc2c1,191%[activator],12%
CCCC(=O)Nc1cccc(C(=O)NCCc2ccccc2)c1,181%[activator],22%
Cc1cccc(CCNC(=O)c2nn(C)c3c2CSc2ccccc2-3)c1,-2%,-8%
CCn1cc(CCC(=O)NCc2ccc(C)cc2)c2ccccc21,-13%,1%
CCCSc1nc2sc3c(c2c(=O)n1-c1cccc(Br)c1)CC(C)(C)OC3,-9%,-9%
Cc1c(Cl)cccc1NC(=O)C1CCN(c2ncnc3c2nc2n3CCCCC2)CC1,-22%,-18%
Cc1ccc(S(=O)(=O)Cc2ccc(C(=O)N3CCN(c4cccc(C)c4C)CC3)o2)cc1,?,-22%
O=C(CC(c1ccccc1)c1ccccc1)N1CCN(C/C=C/c2ccccc2)CC1,-13%,-10%
Cc1oc(-c2ccccc2)nc1CC(=O)Nc1ccccc1C(C)(C)C,-13%,12%
CC(NC1CCCc2ccccc21)C(=O)c1c[nH]c2ccccc12 (stereo not given),0%,7%
COc1cc(Cl)c(C)cc1NC(=O)c1nn(-c2ccc(C)cc2)c(=O)n(C)c1=O,2%,4%
Cc1ccc(C(C)NC(=O)C2CCCCC2)cc1C (stereo not given),10%,3%
COc1cccc(NC(=O)c2sc3nc4n(c(=O)c3c2C)CCC4)c1,107%[activator],-8%
O=C(CC1C(=O)NCCN1C(=O)CN1CCN(C(=O)c2ccco2)CC1)Nc1ccc2c(c1)OCO2 (stereo not given),8%,7%
CCOCc1nnc(NC(=O)C2CC(=O)N(CCc3c[nH]c4ccc(Cl)cc34)C2)s1 (stereo not given),-13%,-3%
CCOc1ccc(-c2nnc(Nc3ccc(S(N)(=O)=O)cc3)c3ccccc23)cc1,-10%,-9%
O=C(NCC1CCCO1)c1c[nH]c2ccc(S(=O)(=O)Nc3ccc(F)cc3F)cc2c1=O (stereo not given),51%[activator],-1%

# By substructure: the entries above with a halogen.
SMILES,2A firefly,StopGo RLuc
O=C(CCS(=O)(=O)c1cc(Br)cc2c1N(C(=O)C1CC1)CC2)NCc1ccccc1Cl,-7%,1%
CC(=O)Nc1cccc(NC(=O)c2cnn(-c3ccccc3F)c2C(F)(F)F)c1C,0%,5%
Cn1c(=O)n(C)c2cc(N3CCCCC3)c(NC(=O)c3c(F)cccc3F)cc21,11%,19%
Cc1ncc(-c2ccc(S(=O)(=O)Nc3cccc(Cl)c3C)cc2)o1,-24%,76%[activator]
CC(CCO)Nc1nc2c(c(=O)n(C)c(=O)n2C)n1Cc1ccc(Br)cc1 (stereo not given),8%,-6%
O=C(NCCCN1CCN(c2ccccc2F)CC1)c1ccc2nc(N3CCCCC3)sc2c1,6%,-13%
CCCSc1nc2sc3c(c2c(=O)n1-c1cccc(Br)c1)CC(C)(C)OC3,-9%,-9%
Cc1c(Cl)cccc1NC(=O)C1CCN(c2ncnc3c2nc2n3CCCCC2)CC1,-22%,-18%
COc1cc(Cl)c(C)cc1NC(=O)c1nn(-c2ccc(C)cc2)c(=O)n(C)c1=O,2%,4%
CCOCc1nnc(NC(=O)C2CC(=O)N(CCc3c[nH]c4ccc(Cl)cc34)C2)s1 (stereo not given),-13%,-3%
O=C(NCC1CCCO1)c1c[nH]c2ccc(S(=O)(=O)Nc3ccc(F)cc3F)cc2c1=O (stereo not given),51%[activator],-1%

# Additional records.
SMILES,2A firefly,StopGo RLuc
C=C(C)COc1ccc2c(C)c(CCC(=O)NCC(O)c3ccccc3)c(=O)oc2c1 (stereo not given),0%,6%
CCOc1ccc(NC(=O)c2cc3cc(C)ccc3[nH]2)cc1,44%[activator],6%
Cc1ccccc1-c1nc2cc(NC(=O)Cc3ccc(Cl)cc3)ccc2o1,20%,9%
O=C(COc1c(Cl)cccc1Cl)Nc1ccccc1N1CCCC1=O,4%,49%[activator]
COc1cccc(C2CCCN2Cc2nc(-c3cccc(Cl)c3)no2)c1 (stereo not given),2%,-3%
Cn1c(=O)[nH]c(=O)c2c1nc(N1CCC(C(N)=O)CC1)n2CCCc1ccccc1,21%,17%
Cc1nn2c(-c3ccco3)ccnc2c1-c1ccc(F)cc1,0%,1%
O=C(O)CCC(=O)N1CCN(c2cccc(Cl)c2)CC1,3%,-1%
Cc1ccc(NC(=O)CSc2nnc(-c3nnn(-c4ccc(F)cc4)c3C)o2)cc1Br,32%[activator],-14%
Cc1cc(C)c2c(=O)cc(C(=O)Nc3sc4c(c3C(=O)NCc3cccnc3)CCCC4)oc2c1,-9%,-1%
O=C(O)c1cc2ccccc2o1,-9%,-6%
O=C(COc1ccc(Cl)cc1)NCCc1csc(-c2ccncc2)n1,-26%,-22%
CCOC(=O)c1[nH]c(C)c(CCC(=O)N2CCN(c3cc(Cl)ccc3C)CC2)c1C,-20%,-20%
COc1ccccc1C(=O)Nc1ccc(OCc2cc(=O)n3ccsc3n2)cc1,-2%,2%
COc1cc(NC(=O)CCc2c[nH]c3ccccc23)cc(OC)c1,6%,-6%
Cc1oc2ncn(C)c(=O)c2c1C(=O)NCc1ccccc1,-10%,2%
CC1=C(C(=O)OCc2ccc(C)cc2)C(c2c(Cl)cccc2Cl)CC(=O)N1 (stereo not given),-5%,5%
Cc1cccc(NS(=O)(=O)c2cc(C(=O)Nc3ccc4oc(C)nc4c3)ccc2C)c1,?,-62%
COc1ccc(NS(=O)(=O)c2ccc3c(c2)CC(C)N3C(=O)C2CCC2)cc1OC (stereo not given),?,?
Cc1cc(Cl)ccc1NC(=O)CCC(=O)N/N=C1\CCCCC1C (stereo not given),11%,5%
CCCc1nnc(NC(=O)Cc2ccc(Br)cc2)s1,6%,-4%
Cc1ccc(C)c(CSc2nnc(C)n3c2cc2sccc23)c1,-8%,50%[activator]
CC1CCCCN1C(C)CNC(=S)NCc1ccco1 (stereo not given),-3%,5%
N#Cc1ccccc1CN1CCCC1,5%,14%
CC(=O)N1CCc2cc(Br)cc(S(=O)(=O)N3CCN(c4cccc(C(F)(F)F)c4)CC3)c21,-7%,-4%
COCc1ccc(C(=O)NC(C)c2ccc(F)c(F)c2)cc1 (stereo not given),21%,6%
O=C1CN(C(=O)COc2ccc(Br)cc2Cl)c2ccccc2N1,3%,-6%
COc1cc(-c2nc3ccc(Cl)cn3c2Nc2ccccc2)cc(OC)c1O,63%[activator],111%[activator]
Cc1ccc(S(=O)(=O)N(CC(=O)NCc2ccncc2)c2ccc(C)c(Cl)c2)cc1,-14%,138%[activator]
COC(=O)C1CN(Cc2ccccc2)CCS(=O)(=O)N1Cc1ccc(Cl)cc1 (stereo not given),?,14%
O=S(=O)(NCCc1csc2nc(-c3ccc(F)cc3)nn12)c1ccc(F)c(C(F)(F)F)c1,14%,144%[activator]
CCN(C(=O)CSc1nnc(C)n2c1cc1occc12)c1ccccc1,0%,-19%
COc1ccc(/C=C/C(=O)c2cccc(O)c2)cc1,13%,3%
CCN(CC)CCNC(=O)c1ccc2nc(C)c(C)nc2c1,0%,-18%
CCN(CC)S(=O)(=O)c1cc(NC(=O)Cn2cnc3ccccc3c2=O)ccc1C,-15%,-33%
Cc1ccccc1Nc1c(-c2c[nH]c3ccccc23)nc2ccc(Cl)cn12,70%[activator],-10%
CCOC(=O)Cc1ccc(NC(=O)n2ncc3cc(Cl)ccc32)cc1,7.9µM*,7%
Cc1cc(NC(=O)C(C)OC(=O)c2cc3ccccc3s2)no1 (stereo not given),0%,11%
COc1ccc2c(C)nc(Nc3nc4ccccc4c(=O)[nH]3)nc2c1,8%,11%
O=C1/C(=C/c2cccc(F)c2)C(c2ccccc2)Oc2ccccc21 (stereo not given),16%,-11%[1.06 µM]
Cc1cnc(NC(=O)C(C)(C)Oc2ccc(Cl)cc2)s1,-3%,-10%
Cc1cc(NC(=O)C(C)Oc2cccc(Cl)c2)n(C)n1 (stereo not given),9%,-1%
Cc1ccc2ncn(Cc3ncc(-c4cccc(Cl)c4)o3)c(=O)c2c1,4%,-9%
O=C(Nc1ccccc1)C1Sc2nnc(-c3ccccc3)n2NC12CCCCC2 (stereo not given),-17%,4%
Cc1ccc(NC(=O)CCC(=O)N2CCOc3ccccc32)c(Cl)c1,0%,-2%
Oc1ccc(C2N3CC4(c5ccccc5)CN2CC(c2ccccc2)(C3)C4O)cc1 (stereo not given),-14%,51%[activator]
COc1ccc(OC)c(NC(=O)c2ncoc2-c2cccc(Cl)c2)c1,1%,-2%

# Part of the list above, reformatted:
# Under each structure – 2A firefly, StopGo RLuc
- CCOCc1nnc(NC(=O)C2CC(=O)N(CCc3c[nH]c4ccc(Cl)cc34)C2)s1 (stereo not given)
    -13%, -3%
- CCOc1ccc(-c2nnc(Nc3ccc(S(N)(=O)=O)cc3)c3ccccc23)cc1
    -10%, -9%
